Source: PubChem BioAssay
Calb FLC: C. albicans growth modulation with fluconazole; C. albicans CaCi-2 (fluconazole-resistant clinical isolate) + fluconazole, Alamar Blue growth, 48 h; growth inhibition, % (no concentration beside the values); 300,000 tested, 0.57% active;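 active = most replicates above 75%; inconclusive = exactly half above 75%; inactive = most below 75%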;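 note: all wells also contain fluconazole at 8 µg/ml as a sub-toxic cotreatment; 0% = median of DMSO wells and 100% = median of geldanamycin control wells; wells of about 8 µL received 7.5 nL stock; the first replicate is given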
T cruzi repl: T. cruzi replication inhibition; T. cruzi beta-gal in NIH3T3, luminescence, 90 h; inhibition, % (no concentration beside the values); 300,000 tested, 1.4% active; AID 1885;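 active = mean inhibition across valid replicates above about 55%, limit read from the data; inconclusive = mean below that limit but half or more replicates reach it; inactive = mean below it, under half of replicates reach it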;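 note: signal also drops with host cell toxicity which is not excluded here; 0% = plate median of DMSO wells and 100% = zero luminescence signal; higher percent means less beta-gal luminescence so fewer parasites; stock transfer was 50 nL into about 50 µL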
LANA-H2A inh: blocks KSHV LANA binding to histone H2A/H2B. 320,000 tested, 0.6% active. inhibition, % (no concentration beside the values). cell-free LANA-H2A/H2B peptide, fluorescence polarization; in the data active = inhibition mostly above about 10%, no sharp cut-off; inactive = mostly below about 6.7%;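 note: stock transfer was 7.5 nL into about 10 µL; 0% = median of vehicle wells and 100% = median of positive control wells; one replicate is shown; the record names a cut of 25% in any replicate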
Target sequence (Q9QR71 whole entry, looked up): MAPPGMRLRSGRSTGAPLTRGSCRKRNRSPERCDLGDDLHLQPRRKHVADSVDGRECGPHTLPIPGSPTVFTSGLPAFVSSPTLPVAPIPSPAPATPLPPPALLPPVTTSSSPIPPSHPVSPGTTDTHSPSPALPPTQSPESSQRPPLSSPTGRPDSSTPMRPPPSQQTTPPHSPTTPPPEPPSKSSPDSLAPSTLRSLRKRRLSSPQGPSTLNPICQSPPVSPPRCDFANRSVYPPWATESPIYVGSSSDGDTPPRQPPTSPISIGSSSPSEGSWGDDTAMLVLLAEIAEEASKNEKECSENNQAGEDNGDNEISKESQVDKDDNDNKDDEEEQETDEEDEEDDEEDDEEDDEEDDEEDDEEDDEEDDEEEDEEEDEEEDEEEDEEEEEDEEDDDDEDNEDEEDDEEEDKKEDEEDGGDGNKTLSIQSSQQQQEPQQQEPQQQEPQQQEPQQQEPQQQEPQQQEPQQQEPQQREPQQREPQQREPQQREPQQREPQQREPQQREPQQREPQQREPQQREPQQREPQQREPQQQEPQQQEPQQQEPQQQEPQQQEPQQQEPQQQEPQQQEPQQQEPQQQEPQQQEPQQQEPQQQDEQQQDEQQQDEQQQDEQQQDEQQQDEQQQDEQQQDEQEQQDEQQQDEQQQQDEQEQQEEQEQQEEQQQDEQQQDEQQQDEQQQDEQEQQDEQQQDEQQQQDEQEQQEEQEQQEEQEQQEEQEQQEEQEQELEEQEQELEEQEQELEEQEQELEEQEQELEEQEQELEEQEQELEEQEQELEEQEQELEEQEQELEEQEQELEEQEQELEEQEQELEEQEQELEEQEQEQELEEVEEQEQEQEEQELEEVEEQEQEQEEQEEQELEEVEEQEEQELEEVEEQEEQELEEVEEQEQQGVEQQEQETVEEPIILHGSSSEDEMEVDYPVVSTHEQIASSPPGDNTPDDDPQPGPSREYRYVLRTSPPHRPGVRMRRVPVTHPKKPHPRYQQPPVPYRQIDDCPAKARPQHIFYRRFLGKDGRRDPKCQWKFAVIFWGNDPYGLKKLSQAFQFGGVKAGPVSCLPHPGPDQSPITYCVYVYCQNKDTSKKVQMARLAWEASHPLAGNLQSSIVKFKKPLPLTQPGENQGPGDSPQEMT
B2AR ag: agonists of human beta-2 adrenergic receptor inducing internalization. Am2.2-beta2AR cells, FAP receptor internalization, flow cytometry; reference of the scale not given here. response, % (no concentration beside the values). 340,000 tested, 0.43% active. AID 504454;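 active = response above a set limit, near 3 SD of response in nonfluorescent compounds, cut at about 42% in these data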;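 note: stock transfer was 100 nL into about 11 µL; a reference agonist was the positive control; negative values mostly stem from fluorescent compounds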
rRNA inh HTS: inhibitors of bacterial rRNA selective over humanized ribosomes. E. coli WT GFP vs humanized-ribosome RFP mutants, fluorescence, 24 h; stronger effect = lower value; DMSO median 0, no signal -100. GFP signal change (wild-type ribosome), % (concentration not given with the values). 350,000 tested, 1.6% active. AID 720706;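 active = significant combined selectivity score with lowered wild-type GFP, culture density cut under 30%, mutant RFP and density less affected; inactive = any of these conditions unmet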; note: one replicate is shown; some compounds called inactive have numbers as strong as hits
Beta apoptosis: beta cell apoptosis inhibition; INS-1E cytokine-induced death, ATP luminescence, 48 h; percent of positive-control rescue, neutral wells zero; protection from apoptosis, % (test concentration not listed); 300,000 tested, 0.8% active; AID 435005;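 active = all replicates at 75% or more, or half of them and the mean; inconclusive = half reach 75% but not the mean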;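 note: 0% = cytokine-treated negative control wells and 100% = positive control rescue; higher means more ATP so stronger rescue from cytokine killing; wells of about 40 µL received 100 nL stock; the first replicate is given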
A1 inh: inhibitors of the anti-apoptotic protein A1, read as caspase activation; caspase activation, % (no concentration beside the values); MEF A1-2A-BIM cells, Caspase-Glo 3/7 luminescence, 3 h; percent of clofoctol response, vehicle zero; 330,000 tested, 0.066% active;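 active = over half of replicate activation scores above 10%, or exactly half above 10 with the replicate mean above 10; inconclusive = replicate mean below 10 yet half the replicates above 10; inactive = over half of replicates below 10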;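 note: wells of about 30 µL received 50 nL stock; many hits fall short of the cut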
ALR H2O2 inh: human ALR oxidase inhibition via reduced H2O2; P55789; purified ALR, DTT oxidation, H2O2 HRP-luminol luminescence; inhibition, % (no concentration beside the values); 290,000 tested, 3.8% active;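 active = mean and each replicate at 75% or more; inconclusive = only one of the two met; inactive = neither met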;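 note: stock transfer was 7.5 nL into about 7.5 µL; 0% = neutral wells and 100% = wells with inactivated enzyme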
rRNA inh HTS OD600: also measured in rRNA inh HTS; calls as there; OD600 change, %; measured here: OD600 growth;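 optical density of the mix in the first replicate; 0 = DMSO median and -100 = no signal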
rRNA inh HTS RFP: further read-out of rRNA inh HTS, marked with its call; RFP signal change, %; measured here: RFP humanized mutant strains;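 first replicate; 0 = DMSO median and -100 = no signal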
* hit, by the source's call; ? = inconclusive; nt = not tested or not shown. Some of the compounds tested, so the mix of outcomes need not match the whole.

Structure	ALR H2O2 inh	Calb FLC	LANA-H2A inh	A1 inh	B2AR ag	T cruzi repl	Beta apoptosis	rRNA inh HTS RFP	rRNA inh HTS OD600	rRNA inh HTS
COc1ccc(N2CCN(C(=O)NC3CCCCC3)CC2)cc1	81*	2	0.5	1.2	-5	-6	2	nt	nt	nt
COc1ccc2nc(N/C(=N/S(=O)(=O)c3cccs3)c3ccccc3Cl)sc2c1	-1	25	-0.3	-0.3	14	9	1	-20	-72	-55
Cc1[nH]c2ccccc2c1C(=O)CN1CC(C)OC(C)C1 (stereo not drawn)	-11	-5	-9.3	2.6	nt	3	-3	nt	nt	nt
COc1ccc(CCNC(=O)C2CC(=O)N(c3ccc(C)cc3)C2)cc1 (stereo not drawn)	nt	-13	-6.5	0.2	2	-5	-5	-2.7	9	2
CCCN(CCC)Cc1c(C(=O)N/N=C/c2ccncc2)nnn1-c1nonc1N	-7	29	-1.5	1.2	0	-21	-3	-8.2	7	3
CCN(CC)S(=O)(=O)c1ccc(OC)c(NC(=O)CSc2cc(Cl)ccc2Cl)c1	-10	2	-0.1	0.1	-5	-12	25	nt	nt	nt
O=c1[nH]c2ccccc2nc1/C=C/c1ccccc1	-5	10	3.7	1.2	-4	4	7	8.0	22	9
CC1(CC(=O)N/N=C/c2ccc(OCc3ccc(Cl)cc3Cl)cc2)OCCCO1	-1	32	-0.1	0.4	0	10	nt	nt	nt	nt
CCOC(=O)c1ccc(N2C(=O)C3C(/C=C/c4ccccc4)OC4(C(=O)c5ccccc5C4=O)C3C2=O)cc1 (stereo not drawn)	-15	-1	3.3	0.2	0	-11	0	-1.0	17	20
CCOC(=O)c1ccc(NC(=O)CSc2nc3sc(C(=O)O)c(C)c3c(=O)[nH]2)cc1	98*	-4	-4.3	-0.2	3	-11	-3	-5.6	6	7
COc1ccc(OC)c2[nH]c(=O)c(CCNC(=O)c3cccs3)cc12	-1	27	-1.5	0.7	-16	3	-10	-0.1	-5	1
COc1ccc(N=Cc2cccc(C)c2O)cc1Cl	-12	-1	0.1	-0.3	10	-3	6	-2.8	9	6
CC(C)=CCCC1=CCC(/C=N/NC(N)=O)C(C)C1 (stereo not drawn)	-7	1	-4.5	0.2	-4	-17	6	0.2	-2	8
S=C(c1ccc2c(c1)OCO2)N1CCCCCC1	-6	-12	-1.2	0.3	7	3	0	nt	nt	nt
CCCn1nc(C(=O)NCCN2CCOCC2)c2ccccc2c1=O	nt	-5	-0.8	0.8	-4	-8	-3	nt	nt	nt
COc1ccc(C(=O)N2CCCCC2)cc1S(=O)(=O)Nc1ccccc1	4	3	-0.6	0.5	-10	1	5	nt	nt	nt
CC(C)(C)c1[nH]nc2c1C(Cc1ccccc1)C(C#N)=C(N)O2 (stereo not drawn)	nt	-5	-1.0	-0.1	-2	-14	1	nt	nt	nt
CC(C)c1cccc(C(C)C)c1NC(=O)Cn1c(=O)cnc2ccccc21	-4	-5	-2.5	-0.5	2	-22	-3	-1.2	2	9
COc1ccc(C(=O)NC(NC(=O)c2ccc(OC)cc2)c2ccccc2F)cc1	-4	-6	-2.5	-0.8	-6	-7	-1	0.6	4	-1
CCOc1ccc(S(=O)(=O)NCc2ccc3c(c2)OCO3)cc1NC(C)=O	2	-6	3.3	-0.2	-6	4	1	-1.3	9	-2
CCN(CC)C(=O)C(C)N(C#N)c1nc(NC(C)C)nc(NC(C)C)n1 (stereo not drawn)	-4	-8	-3.2	0.2	-9	23	4	nt	nt	nt
Cc1cccc(NC(=O)C2CCN(c3ncnc4c3nc3n4CCCCC3)CC2)n1	4	9	-1.6	0.4	-2	-4	nt	1.5	-8	-2
Fc1ccccc1-n1cc(-c2ccccc2)[nH]c1=S	93*	-41	-2.8	-0.3	-1	-3	7	-1.2	1	-5
CC(C)Oc1cccc(C(=O)NC(=S)Nc2cccc(C(F)(F)F)c2)c1	15	-1	-1.5	0.1	-8	-29	1	nt	nt	nt
O=C(CSc1ncn[nH]1)N1CCOCC1	1	5	0.1	2.1	13	-6	-1	1.2	-3	7

4 structures already listed, sorted by SMILES length, low to high:
Structure	ALR H2O2 inh	Calb FLC	LANA-H2A inh	A1 inh	B2AR ag	T cruzi repl	Beta apoptosis	rRNA inh HTS RFP	rRNA inh HTS OD600	rRNA inh HTS
O=C(CSc1ncn[nH]1)N1CCOCC1	1	5	0.1	2.1	13	-6	-1	1.2	-3	7
Cc1cccc(NC(=O)C2CCN(c3ncnc4c3nc3n4CCCCC3)CC2)n1	4	9	-1.6	0.4	-2	-4	nt	1.5	-8	-2
COc1ccc2nc(N/C(=N/S(=O)(=O)c3cccs3)c3ccccc3Cl)sc2c1	-1	25	-0.3	-0.3	14	9	1	-20	-72	-55
CCN(CC)S(=O)(=O)c1ccc(OC)c(NC(=O)CSc2cc(Cl)ccc2Cl)c1	-10	2	-0.1	0.1	-5	-12	25	nt	nt	nt

More records follow:
Structure	ALR H2O2 inh	Calb FLC	LANA-H2A inh	A1 inh	B2AR ag	T cruzi repl	Beta apoptosis	rRNA inh HTS RFP	rRNA inh HTS OD600	rRNA inh HTS
CCc1ccc(NC(=O)c2ccccc2SC)cc1	nt	-7	-1.3	-4.8	0	-2	-1	-3.0	5	-7
COc1ccc(C(=O)NNC(=S)NC(=O)c2ccc(F)cc2)cc1Br	57	5	-1.9	0.1	9	8	-1	-22	-80	-56
NC(=O)C1CCN(C(=O)c2ccc3c(c2)S(=O)(=O)c2ccccc2C3=O)CC1	nt	-5	0.1	2.1	-8	2	1	0.6	11	4
Cc1nn(C(=O)c2ccco2)c(C)c1Br	-4	1	-6.0	-0.4	1	-18	-7	nt	nt	nt
CCC[C@H]1COCCS(=O)(=O)N1Cc1ccccc1	-4	7	0.3	0.3	4	-5	-6	0.5	14	13
Cc1ccc(S(=O)(=O)N2CCC(=O)N(CCOCc3cccc(F)c3)CC2)cc1	-5	16	2.8	0.6	-1	-1	-5	2.1	-6	-3
COc1cccc(CN(C(=O)c2ccco2)C(C(=O)NC2CCCC2)c2cccnc2)c1 (stereo not drawn)	-3	2	4.2	-1.6	8	-1	1	nt	nt	nt
CC(=O)NCCC(=O)N(C)CC1CCN(CCc2cccc(C(F)(F)F)c2)CC1	-2	-3	7.1	2.2	-6	39	31	1.7	18	20
Cc1ccc(C)c(NC(=O)CN(C)C(C)C(=O)N2CCCC2)c1 (stereo not drawn)	2	nt	-21	0.5	1	nt	-7	1.8	13	21
O=c1c(N2CCOCC2)nsnc1N1CCOCC1	23	-12	11	0.1	-1	5	-5	nt	nt	nt
CCCC(=O)Nc1nn(C)c2nc3cc(C)ccc3cc12	-5	-3	-1.0	0.1	nt	-4	-1	nt	nt	nt
CCOC(=O)C1=C(COC(=O)C2CC(=O)N(c3ccc(C)cc3)C2)NC(=O)NC1C (stereo not drawn)	-39	-4	-13	0.4	3	-4	-12	1.0	6	13
CCCCNc1nnc(SCC(=O)c2c(N)n(C3CC3)c(=O)[nH]c2=O)s1	-10	nt	-4.9	0.1	-1	nt	-1	-2.6	4	7
Cc1ccc(NS(=O)(=O)c2c(C)[nH]c(C)c2C(=O)N2CCCCC2)c(Cl)c1	3	-2	1.6	0.0	2	-3	-10	5.4	-8	2
N/C(=N\O)c1cn(Cc2ccccc2Cl)c2ccccc12	99*	34	-0.7	2.0	4	39	-3	5.9	-29	-14
COC(=O)c1c(NC(=O)COC(=O)CNC(=O)c2ccco2)sc(C)c1C	64	-3	2.2	0.0	8	-9	-2	nt	nt	nt
O=C(COC(=O)c1ccc[nH]c1=O)NCCC1=CCCCC1	2	nt	-0.2	0.0	1	nt	1	-1.1	12	10
O=S(=O)(NC1=NCCCCC1)c1ccc2ccccc2c1	-1	?	-1.6	0.6	-4	8	3	nt	nt	nt
COc1ccc(CNC(=O)CN(C(=O)CCC(=O)Nc2ccccn2)c2cccc(C)c2)cc1	-19	0	-12	0.5	-1	31	-7	3.5	9	15
CCOc1cccc(/C=N/NC(=O)c2cc(C3CC3)[nH]n2)c1O	98*	-3	0.6	0.7	4	-8	96*	0.1*	9.9*	-17*
CCn1c(-c2cc(OC)c(OC)c(OC)c2)n[nH]c1=S	97*	1	-5.5	0.7	-3	-17	-2	nt	nt	nt
O=C(O)CSc1nnc(COc2cccc3cccnc23)n1-c1cccc(C(F)(F)F)c1	-6	0	1.9	0.3	nt	-8	1	-0.1	9	14
CCCC1C2CN(C(C)C)CC=C2C(C#N)=C(N)C1(C#N)C#N (stereo not drawn)	66	0	30*	-0.3	-8	13	4	nt	nt	nt
CC1S/C(=N/N=C/c2ccco2)NC1=O (stereo not drawn)	1	-10	4.4	-0.1	-7	-18	-4	nt	nt	nt
Cc1ccc(S(=O)(=O)NC2=NCN(CCN3CCOCC3)CN2)cc1	-2	-6	-0.1	0.9	-2	3	-7	nt	nt	nt
C=CCc1cc(C)ccc1OCCCC(C(=O)OCC)C(=O)OCC	-10	7	-1.9	-0.5	1	-7	2	-1.6	9	6
Cc1ccc(C(=O)Nc2ccn(C)n2)cc1	nt	nt	0.1	-7.4	-2	nt	-7	-0.1	17	12
NC(=O)C1c2ccccc2CSc2ccccc21 (stereo not drawn)	-7	12	2.1	-0.1	2	-13	-4	nt	nt	nt
CC(C)c1cc(=O)n2c(nc3ccccc32)[nH]1	18	-3	-12	0.1	1	-6	-3	-4.3	-6	-3
COc1ccc(N(C(=O)c2ccco2)C(C(=O)NC2CCCC2)c2ccc(N(C)C)cc2)cc1OC (stereo not drawn)	-3	5	-0.4	1.0	-10	10	6	1.7	8	2
CSc1ccc(CNc2ccc(C)c(C)c2)cc1	27	6	1.1	-0.3	20	-11	-3	-9.6	-8	-9
CN=c1scc(-c2ccc(Br)cc2)n1C	26	-26	4.1	1.2	-3	29	-5	nt	nt	nt
Cc1ccc(C)c(N(C(=O)c2csnn2)C(C(=O)NC2CCCC2)c2cccnc2)c1 (stereo not drawn)	-1	1	10	0.2	-20	-6	-1	2.5	12	20
CC(Sc1nnc(C(F)(F)F)n1C)C(=O)Nc1ccc(S(N)(=O)=O)cc1 (stereo not drawn)	-3	9	-4.0	0.3	-3	2	-3	-1.6	-2	11
Cc1ccc(NC(=O)N2CCc3ccccc32)cc1C	2	nt	1.8	-7.3	-1	-1	8	8.5	12	-6
OCC(O)/C=N/Nc1nc2ccccc2s1 (stereo not drawn)	nt	-45	-0.7	-0.1	-3	-2	-1	0.7	1	9
Cc1cc(C)c(N=C2C(=O)Nc3ccccc32)c(C)c1	-5	-37	-0.4	0.3	2	13	1	0.7	9	13
